KCNQ2 pot = KCNQ2 (rat) channel potentiation; O88943; CHO-K1 KCNQ2, FluxOR thallium flux fluorescence; hits give high values; B-score at 10 µM; 0.54% of 310,000 active;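 active means fluorescence ratio B-score at least 3 SD of library B-scores, with initial fluorescence B-score within 3 SD, cut at about 5.3 in these data; same plate scores as AID 2156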;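 further: B-score of peak minus minimum over baseline fluorescence ratio after K+ and Tl+ stimulus; positive B-score means potentiation of KCNQ2 with more thallium influx and brighter signal; only the inactives scoring about 0 or higher are listed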
Target sequence (O88943 whole entry, looked up): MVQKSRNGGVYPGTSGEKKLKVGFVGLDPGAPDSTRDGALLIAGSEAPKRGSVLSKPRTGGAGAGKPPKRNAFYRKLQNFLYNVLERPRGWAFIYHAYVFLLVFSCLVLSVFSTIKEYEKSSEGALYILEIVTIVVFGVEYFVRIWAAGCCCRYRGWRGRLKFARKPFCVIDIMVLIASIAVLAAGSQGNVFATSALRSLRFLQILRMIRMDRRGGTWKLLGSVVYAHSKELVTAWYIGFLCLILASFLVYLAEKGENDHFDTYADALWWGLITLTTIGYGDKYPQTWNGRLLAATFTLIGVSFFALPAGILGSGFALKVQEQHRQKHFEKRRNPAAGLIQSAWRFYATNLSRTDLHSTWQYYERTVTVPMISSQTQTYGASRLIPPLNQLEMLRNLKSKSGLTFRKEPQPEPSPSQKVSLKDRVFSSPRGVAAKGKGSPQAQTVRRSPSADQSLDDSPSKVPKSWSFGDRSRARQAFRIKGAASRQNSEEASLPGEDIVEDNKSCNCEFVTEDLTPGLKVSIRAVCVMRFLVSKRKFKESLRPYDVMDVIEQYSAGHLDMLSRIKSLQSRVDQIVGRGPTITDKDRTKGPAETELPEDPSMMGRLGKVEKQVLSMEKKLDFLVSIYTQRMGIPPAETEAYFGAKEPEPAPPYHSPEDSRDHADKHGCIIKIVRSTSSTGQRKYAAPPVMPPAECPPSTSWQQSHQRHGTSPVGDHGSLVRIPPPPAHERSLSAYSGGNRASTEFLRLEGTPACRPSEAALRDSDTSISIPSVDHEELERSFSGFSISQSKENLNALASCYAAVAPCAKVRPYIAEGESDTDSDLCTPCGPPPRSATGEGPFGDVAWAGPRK
KCNQ2 pot baseline = second read-out of KCNQ2 pot, no call of its own (marks repeat the call); B-score; compound at 10 µM; measured here: initial fluorescence intensity artifact check;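 brightness before thallium and not channel activity; 0 = typical well and far values either way flag optical interference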
An asterisk follows results filed as active; . = not tested or not shown. These rows are one share of the data; count on the stated rates, not on these rows.

SMILES	KCNQ2 pot	KCNQ2 pot baseline
Cc1ccc(C)c(N2C(=O)CC(N3CCN(Cc4ccc5c(c4)OCO5)CC3)C2=O)c1 (stereo not given)	1.3	1.2
O=[N+]([O-])c1ccc(Sc2ncc3ccccn23)nc1	2	-0.57
O=c1cc(O)c(-c2ccccc2Cl)c(Cl)[nH]1	1	-0.09
Cc1cc2nc3n(c2cc1C)CC1CC(C(=O)NCc2cccc(C(F)(F)F)c2)N(C)C31 (stereo not given)	0.7	0.84
COc1ccc(-c2nnnn2C(C)C)cc1S(=O)(=O)Nc1ccccc1	1.2	-0.74
Nc1nnc(CC(=O)N/N=C\c2cc([N+](=O)[O-])ccc2O)s1	0.43	0.27
Cc1cc(Cl)ccc1NC(=S)N1CCC(C(N)=O)(N2CCCCC2)CC1	0.81	-0.17
Cc1cc(=O)c2n(Cc3ccc(Cl)cc3)nc[n+]2[nH]1	0.51	-1.7
COc1ccc(OC)c(N(CC(=O)NCCSc2ccccc2)S(C)(=O)=O)c1	0.75	-0.31
O=C(Nc1cccc(S(=O)(=O)Nc2ccc(Cl)cc2)c1)c1ccc2c(c1)OCCO2	2.3	0.76
COC(=O)c1ccccc1NC(=S)NC(=O)COc1ccccc1	0.07	0.67
Cc1ccc(SCCC(=O)Nc2ccccc2C(=O)N2CCOCC2)cc1	2.1	-1.6
O=C(NCc1cccs1)c1cccc(N2CCCC2=O)c1	0.72	2.9
c1ccc(N2CCN(Cc3ccnc4ccccc34)CC2)cc1	0.66	-0.07
CCc1ccc(NC2=CC(=O)CC(C)(C)C2)cc1	0.66	-0.18
CC1CCCN(C(=O)Cn2nnc(-c3ccccc3F)n2)C1 (stereo not given)	0.57	-0.4
O=C(CC(=O)Nc1ccc(Cl)c(Cl)c1)N/N=C/c1ccc(O)cc1	0.05	-1.7
COc1ccc(NC(=O)CC2C(=O)NCCN2C(=O)c2ccc(Cl)cc2)cc1 (stereo not given)	0.3	1.6
O=C(c1ccc2ncsc2c1)N1CCCCC1	0.04	0.12
c1ccc(Cn2cc(CSc3ccccc3)nn2)cc1	0.66	-0.1
OCC[C@@H]1C[C@@H](O)[C@H](O)[C@]2(CCCCO2)O1	0.74	-1.2
CCc1ccc(/C=C/C(=O)c2cc(Br)ccc(=O)c2O)cc1	4.1	-0.01
O=S(=O)(Nc1cccc2ncccc12)c1cccs1	3	1
COc1ccc(C(=O)NC2CC2)cc1OC1CCN(Cc2cc(C)c(C)cc2C)CC1	0.14	-1.2
CSC1=C(C#N)C(c2ccc(C(C)C)cc2)CC(=O)N1 (stereo not given)	1.2	-0.16
Further entries follow.
SMILES	KCNQ2 pot	KCNQ2 pot baseline
CC1CCCC(NC(=O)Cc2ccc(Br)cc2)C1C (stereo not given)	5.5*	0*
CCOC(=O)c1ccc(NC(=O)CN2C(=O)C(=O)N(CC(C)C)C2=O)cc1	0.02	-0.24
COc1ccccc1Cn1c(=S)[nH]c2cc(C(=O)N3CCCC3)ccc2c1=O	1	-0.5
Cn1c(CN2CCCC2)nc2cc(NS(=O)(=O)c3ccccc3)ccc21	0.25	-0.4
O=C(O)CCc1nn2c3ccccc3n(CCO)c2nc1=O	0.23	0
CCN1CCN(C(=S)NCc2ccc(C)cc2)CC1	1.3	-0.82
CN(C)CCCC(=O)c1ccc2c(c1)OCO2	0.17	-0.57
Cc1ccc(C(=O)NCCc2nnc3c(C(F)(F)F)cc(Cl)cn23)o1	0.86	-0.17
O=C(Nc1cnc2ccccc2c1)c1cccnc1	3	0.32
Cc1cc(C)nc(Nc2n[nH]c(COc3ccccc3)n2)n1	1.7	-0.97
O=C(COC(=O)c1nc(Cl)c(Cl)c(Cl)c1Cl)c1ccc[nH]1	0.69	-1.1
Cc1cccc2c1Sc1ccccc1CC2=O	0.32	-0.71
O=C(CSc1nc(C(F)(F)F)cc(=O)[nH]1)N1CCC(Cc2ccccc2)CC1	2.6	-0.81
CC(=O)SC(C)CC(=O)Nc1ccccc1 (stereo not given)	0.57	-0.53
Cc1ccc(NCC(=O)c2ccc(C)cc2)cc1	0.16	1.1
O=c1oc2ccccc2c2c1C(c1ccc(Cl)cc1)Nc1ccc3ccccc3c1-2 (stereo not given)	0.03	-0.77
O=C(/C=C/Nc1ccc(F)cc1)c1ccc(Oc2ncccn2)cc1	1.4	3.3
O=C(OCC(=O)N1CCc2ccccc2C1)c1cccnc1Cl	2.4	-0.26
COc1ccc(/C=N/Nc2cc(C)nc(N3CCOCC3)n2)cc1	0.02	-1.2
COc1ccc(CN2CCNC(=O)C2CC(=O)O)c(OC)c1 (stereo not given)	0.82	0.05
Cc1ccccc1CNC(=O)Cc1cccs1	0.87	0.39
COc1cc(NS(=O)(=O)c2ccc(Nc3nc(-c4cccc([N+](=O)[O-])c4)cs3)cc2)nc(OC)n1	0.38	0.05
CC(=O)CSc1nc(N(C)C)nc(N(C)C)n1	0.18	0.02
COc1ccc(-n2cnnc2SCC(=O)Nc2nc(C)c(Cl)cc2Cl)cc1	1.5	0.71
O=C(NCc1ccc2c(c1)OCO2)Nc1cccc2ccccc12	2.4	0.39
Next part:
SMILES	KCNQ2 pot	KCNQ2 pot baseline
O=C(CN1CCN(c2ccccn2)CC1)NCCc1ccccc1	0.21	1.5
COc1ccc(C(=O)C2CCCN(C(=O)c3ccc(C(C)=O)s3)C2)c(C)c1 (stereo not given)	2.7	-0.11
Cc1ccc(C(C)C)c(OCCN2C(=O)NC(C)(C)C2=O)c1	0.14	-0.58
Cc1ccccc1OCCc1c(C)[nH]c(=S)[nH]c1=O	0.01	3
O=C(Cc1cccs1)Nc1ccccc1NC(=O)Cc1cccs1	0.7	-1.1
CCOc1ccc(NC(=O)CC2C(=O)N(c3ccccc3)C(=O)N2CCc2cccs2)cc1 (stereo not given)	1.8	-0.53
CN(C)S(=O)(=O)c1ccc2c(c1)nc(CCC(=O)Nc1ccc3c(c1)OCO3)n2C	0.1	0.2
COc1ccccc1S(=O)(=O)Cc1ccc(C(=O)NCC2CCCO2)o1 (stereo not given)	1.5	-0.48
CO/N=C/c1ccc(N2CCN(C(=O)c3ccc(F)cc3)CC2)c([N+](=O)[O-])c1	1.4	0.38
COc1ccc2c(c1)C(=C(C#N)C#N)C(=O)N2CCc1ccccc1	0.02	-0.73
O=C(NCc1ccc(Cl)cc1)c1ccccc1CCc1ccccc1	4.1	0.03
Cc1noc(C)c1C(=O)N1CC(C)OC(C)C1 (stereo not given)	0.85	1.4
O=C(O)CC1CCS(=O)(=O)C1 (stereo not given)	0.3	0.06
COc1ccc(C(=O)NCCc2ccc(F)cc2)cc1OC	1.1	0.05
C/C(Cc1ccccc1)=N\NC(=O)CNC(=O)c1ccc(F)cc1	1.6	-1
CNC(=O)NC(=O)C(C)OC(=O)CCCc1nc2ccccc2s1 (stereo not given)	1.5	0.37
CCCNCc1cc(OC)c(OCCC)cc1Cl	1.5	1.1
Cc1ccc(-c2nc3ccccc3c(=O)n2CCN2CCOCC2)cc1	0.3	0.01
COc1ccc(/C=C/C(=O)O)cc1S(=O)(=O)Nc1ccc2c(c1)OCO2	0.04	0.17
Cc1cc(C)c(OCCCCn2cnc3ccccc3c2=O)c(C)c1	0.1	0.68
O=C(COC(=O)c1ccccc1Nc1ccccc1)NCc1ccccc1	0.01	0.18
O=C(NC1CCCC1)c1cccc(Cl)c1	0.32	-1.5
COC(=O)c1cc(S(=O)(=O)NCc2ccc(Br)cc2)c[nH]1	0.05	-1.1
Cc1cc(NC(=O)c2c(Cl)cccc2Cl)no1	1.1	1.2
Nc1nc2n(n1)C(c1cccc(Br)c1)CC(c1ccc(F)cc1)N2 (stereo not given)	0.68	0.04
(cont.)
SMILES	KCNQ2 pot	KCNQ2 pot baseline
Cc1ccc(C(=O)NC2CCN(CC(=O)NCc3cccs3)CC2)cc1	0.08	-0.07
CN1CCCCc2c1nc1ccccc1c2N (tested in a mixture with another compound)	1.6	0.08
NC(=O)c1ncc(C(F)(F)F)cc1Oc1ccc(C(F)(F)F)cc1	0.88	0.02
CCCCC(=O)Nc1ccccc1N1CCN(c2ccccc2)CC1	0.51	1.4
Cc1nn(C)cc1/C=N/O	1.9	0.55
O=C(c1ccc(N2C(=O)CCC2=O)cc1)N1CCN(c2ccccc2)CC1	0.2	1.1
Cc1ccc(CN2CCC(Oc3cccc(C(=O)NCc4cccnc4)c3)CC2)o1	0.27	1.5
O=C(C1CCN(S(=O)(=O)c2ccc(Cl)cc2)CC1)N1CCOCC1	1.1	-0.1
COC(=O)Cc1cc(OC)c(OC)cc1S(=O)(=O)N(C)C	1.2	1.5
O=C(O)c1ccccc1OCCOc1ccccc1C(=O)O	0.05	0
CCCn1cnc2c(c1=O)c1nc3ccccc3nc1n2Cc1ccccc1OC	1.4	-1.3
CC1(C)C(=O)C2(CCCC2)C(=O)OC1c1ccco1 (stereo not given)	0.39	-1.3
CCOC(=O)N1CCC(NC(=O)CCc2cn(C)c3ccccc23)CC1	0.69	0.41
COc1cc2c(C(=O)N(C)c3ccc(F)cc3)cn(C)c(=O)c2cc1OC	0.2	-0.48
CN(C(=O)COC(=O)c1ccc[nH]c1=O)C1CCCCC1	3.6	0.18
O=C(CN1CCN(c2ccc(O)cc2)CC1)N1CCc2ccccc21	2.1	-0.38
COc1ccc(NS(=O)(=O)c2cccc(C(=O)N/N=C/c3ccc4c(c3)OCCO4)c2)cc1	0.29	-1.5
Cc1ccc(C(=O)NC(=S)Nc2cccc(NC(=O)c3ccccc3Cl)c2)cc1[N+](=O)[O-]	0.9	-0.36
COc1cccc(OCC(O)CNC2CCCC2)c1 (stereo not given)	0.21	0.01
COc1ccc(/C=C2\CCCC(C(=O)C(F)(F)F)=C2O)cc1OC	0.06	-1.6
Fc1ccc(-c2ccc(/C=N\n3cnnc3)o2)cc1Cl	0.52	0.19
COC(=O)C1=C(C)N(CCCC(=O)O)C(=O)NC1c1cccc(Cl)c1Cl (stereo not given)	0.94	-0.36
COc1ccc(CCNC(=O)c2cc(-c3ccccc3)on2)cc1OC	0.67	-0.17
Cn1c(SCC(=O)Nc2ccccc2F)nc2c(c1=O)SCC2	0.23	-1.6
Cc1c(CC(=O)N2CCN(C(=O)C3COc4ccccc4O3)CC2)c(=O)oc2cc(O)cc(O)c12 (stereo not given)	0.22	-0.63

An excerpt of these results, bar-delimited:
SMILES | KCNQ2 pot | KCNQ2 pot baseline
Cc1ccc(C(=O)NC2CCN(CC(=O)NCc3cccs3)CC2)cc1 | 0.08 | -0.07
CN1CCCCc2c1nc1ccccc1c2N (tested in a mixture with another compound) | 1.6 | 0.08
NC(=O)c1ncc(C(F)(F)F)cc1Oc1ccc(C(F)(F)F)cc1 | 0.88 | 0.02
CCCCC(=O)Nc1ccccc1N1CCN(c2ccccc2)CC1 | 0.51 | 1.4
Cc1nn(C)cc1/C=N/O | 1.9 | 0.55
O=C(c1ccc(N2C(=O)CCC2=O)cc1)N1CCN(c2ccccc2)CC1 | 0.2 | 1.1
Cc1ccc(CN2CCC(Oc3cccc(C(=O)NCc4cccnc4)c3)CC2)o1 | 0.27 | 1.5
O=C(C1CCN(S(=O)(=O)c2ccc(Cl)cc2)CC1)N1CCOCC1 | 1.1 | -0.1
COC(=O)Cc1cc(OC)c(OC)cc1S(=O)(=O)N(C)C | 1.2 | 1.5
O=C(O)c1ccccc1OCCOc1ccccc1C(=O)O | 0.05 | 0
CCCn1cnc2c(c1=O)c1nc3ccccc3nc1n2Cc1ccccc1OC | 1.4 | -1.3
CC1(C)C(=O)C2(CCCC2)C(=O)OC1c1ccco1 (stereo not given) | 0.39 | -1.3
CCOC(=O)N1CCC(NC(=O)CCc2cn(C)c3ccccc23)CC1 | 0.69 | 0.41
COc1cc2c(C(=O)N(C)c3ccc(F)cc3)cn(C)c(=O)c2cc1OC | 0.2 | -0.48
CN(C(=O)COC(=O)c1ccc[nH]c1=O)C1CCCCC1 | 3.6 | 0.18

More records:
SMILES	KCNQ2 pot	KCNQ2 pot baseline
O=C(Nc1ccc(F)cc1)C1CCCN(S(=O)(=O)c2ccc3[nH]c(=O)ccc3c2)C1 (stereo not given)	1.8	-0.37
CC(C)NCC(O)COCCOc1ccc(Cl)cc1 (stereo not given)	0.05	0.03
NC(=S)N/N=C/c1ccccc1O	1.1	-2.1
Cc1cc(=O)n(CC(=O)O)c2ccccc12	1.2	0
COc1ccc(C(c2sc3nc(C)nn3c2O)N2CCCCC2)cc1 (stereo not given)	0.2	-0.33
O=C(Nc1cccc(F)c1)C1CCN(S(=O)(=O)c2cnc[nH]2)CC1	0.14	-0.18
COc1ccc(-c2nnc(SCc3ccccc3)n2N)cc1	0.7	-1.5
N#Cc1ccsc1NC(=O)COC(=O)c1cc2ccccc2cc1O	1.2	-1.1
COc1ccc(-n2nc(C(=O)NCC(=O)Nc3cccc(NC(C)=O)c3)c3ccccc3c2=O)cc1	0.09	-1.1
O=C(CCc1ccccc1)NNC(=O)Nc1cccc(Cl)c1	0.48	-2.3
CSCCC(=O)NC1CC(C)(C)Cc2c1cnn2-c1ccccc1C (stereo not given)	1.2	-1.2
O=C(NNC1=C(C(=O)C(F)(F)F)CCC1)c1ccc(Br)cc1	4.8	-1.3
COc1ccccc1C(=O)Nc1ccc(Cc2ccncc2)cc1	1.4	-0.01
CC(=O)c1sc(N/N=C\c2ccccc2O)nc1C	0.27	0.48
CCc1ccc(CCC(=O)Nc2nnc(CC)s2)o1	1.4	0.28
CCC(C)NS(=O)(=O)c1ccc(NS(=O)(=O)c2ccc(F)cc2)cc1 (stereo not given)	0.17	2.5
CCCN1CCC(NC(=O)Cc2ccccc2C)CC1	2.1	-0.13
OCC1C2c3ccccc3C(c3ccccc32)C1CO (stereo not given)	1.1	0.28
COc1cc(/C=C2\S/C(=N/S(=O)(=O)c3ccc(C)cc3)NC2=O)c([N+](=O)[O-])cc1OC	0.87	-0.21
COc1ccc(C)cc1NC(=O)CN1CCN(S(=O)(=O)c2ccc(F)cc2)CC1	0.03	-1.6
O=C(Cc1ccccc1)Nc1ccccc1N1CCCC1	13*	0.42*
Cc1ccc(N/N=C2\CS(=O)(=O)N(C)c3ccsc32)cc1	1.5	0.16
Cc1ccc(OCC(=O)Nc2ccccc2N2CCCC2)c(C)c1	-5.6	.
CCN(CC)Cc1c(O)ccc2c(=O)c(Oc3ccccc3OC)coc12	0.19	0.03
